High-throughput results as filed in PubChem.
miR-21 FLuc: raises the signal of a miR-21 reporter; 340,000 tested, under 10 active; HeLa miR-21 FLuc reporter, luciferase, 48 h; Potency, µM (top dose mostly 38.3 µM), without a hit: at the highest dose reporter change, positive = more light; active = well fitted rising curve with a large enough effect; inconclusive = small, poorly fitted or top-dose-only effect; inactive = no such curve, though single readings can be large or run the other way;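 note: % of control where 0% means no effect; miR-21 action dims this reporter so a rising signal means less miR-21 action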
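HeLa miR-21-FLuc reporter line, endogenous miR-21; 2000 cells/well in DMEM/10% FBS; compound titration up to ~40uM final, 48 h, 37 degree Celsius; luciferase detection reagent, 15 min lysis, CCD luminescence.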
Rango release inh: prevents RanGTP from dissociating the Rango-importin beta complex; O95149+P62826; Biochemical FRET Rango-importin beta, RanGTP-induced dissociation; Potency, µM (top dose mostly 46.1 µM), inactives show at the highest dose activity change, negative = inhibition; 340,000 tested, 0.071% active; active means falling FRET ratio curve, often poorly fitted, with flat reads before Ran was added; inconclusive means other falling curves, or compound fluorescence or quenching; inactive means flat or rising ratio curve;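 note: potency is the fitted concentration of half-maximal effect; % of control where 0% means no effect; nearly all actives have a fitted effect of over 45% in size; -100% = wells without RanGTP and RCC1; the record marks most hits as doubtful in a second field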
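Compounds preincubate 5 min with complex of recombinant Rango and importin beta in PBS with 1 mM DTT. Ran (0.6 uM) loaded with 2 mM GTP plus 0.2 uM RCC1 starts dissociation; FRET is recorded 45 min later.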
GLA inh pH 4.5: inhibitors of human alpha-galactosidase A at pH 4.5; P06280; purified enzyme, 4-MU-alpha-Gal fluorescence, pH 4.5; activity change, negative = inhibition, % at 105 µM; 230,000 tested, under 10 active; inconclusive = small, poorly fitted or top-dose-only inhibition, or a rising curve; inactive = flat fitted curve, though single readings scatter; no compound was filed as active;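 note: 0% = full activity with enzyme and -100% = basal without enzyme; dose as in the result columns while the protocol names 77 µM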
Rango-impB inh: prevents formation of the Rango-importin beta complex; Potency, µM (top dose mostly 92.2 µM), inactives show at the highest dose inhibition of complex formation; 340,000 tested, 0.031% active; Rango CFP/YFP FRET sensor + importin beta, 45 min; active = rising FRET ratio curve, often small or poorly fitted; inconclusive = mostly compound fluorescence or quenching in the first reads; inactive = flat curves in all reads;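 note: potency is the fitted concentration of half-maximal effect; 0% = DMSO wells and 100% = buffer wells lacking importin beta; nearly all actives have a fitted effect of over 15% in size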
Target sequence (Q14974 whole entry, looked up): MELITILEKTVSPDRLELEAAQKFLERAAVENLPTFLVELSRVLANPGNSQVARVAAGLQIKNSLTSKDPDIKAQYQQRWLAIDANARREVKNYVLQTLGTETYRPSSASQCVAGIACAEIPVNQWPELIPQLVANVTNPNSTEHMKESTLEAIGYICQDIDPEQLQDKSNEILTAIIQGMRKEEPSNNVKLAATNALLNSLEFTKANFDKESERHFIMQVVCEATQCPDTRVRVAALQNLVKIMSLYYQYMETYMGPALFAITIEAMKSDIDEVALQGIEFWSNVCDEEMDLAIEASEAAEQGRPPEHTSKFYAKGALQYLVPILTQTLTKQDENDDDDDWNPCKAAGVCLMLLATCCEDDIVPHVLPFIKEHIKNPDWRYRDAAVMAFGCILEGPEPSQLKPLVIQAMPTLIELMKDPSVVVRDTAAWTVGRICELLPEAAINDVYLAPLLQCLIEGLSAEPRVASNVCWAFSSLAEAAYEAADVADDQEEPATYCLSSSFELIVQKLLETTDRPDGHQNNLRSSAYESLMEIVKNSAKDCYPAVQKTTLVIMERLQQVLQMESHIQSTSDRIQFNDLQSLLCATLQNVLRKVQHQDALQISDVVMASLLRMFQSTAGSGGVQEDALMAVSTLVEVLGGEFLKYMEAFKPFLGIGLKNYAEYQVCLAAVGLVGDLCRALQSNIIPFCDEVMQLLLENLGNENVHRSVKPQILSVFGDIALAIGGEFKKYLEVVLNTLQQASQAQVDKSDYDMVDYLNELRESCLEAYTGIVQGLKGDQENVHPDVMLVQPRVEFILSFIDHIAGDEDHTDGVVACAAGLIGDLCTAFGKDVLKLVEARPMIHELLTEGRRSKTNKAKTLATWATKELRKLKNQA
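Inhibition scored from the CFP 486 nm/YFP 530 nm FRET ratio 45 min after adding 0.125 microM importin beta to 50 nM Rango biosensor preincubated 5 min with compound (room temperature, PBS with DTT, Tween-20, BSA). No-importin wells as positive control.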
Starred values were filed as active, the others as inactive; u = inconclusive; x = not tested or not shown; & = joins results of further samples.

Rango-impB inh	Rango release inh	GLA inh pH 4.5	miR-21 FLuc	SMILES
-4.2%	11%	-7	-9%	CCn1c(=O)c2cc(C(=O)N(C)c3cc(C)ccc3OC)sc2c2ccccc21
0.3%	-3%	x	-7%	Cc1ccccc1OCCC(=O)N1CCN(S(=O)(=O)c2ccc(F)cc2)CC1
1.5%	u	5	-2%	CN(C)S(=O)(=O)c1cccc(NC(=O)CN2C(=O)NC(Cc3c[nH]c4ccccc34)C2=O)c1 (stereo unspecified)
4.3%	-7%	-20	-2%	CC(C)c1ccc(NC(=O)C(c2ccccc2)N(Cc2ccco2)C(=O)CC2NC(=O)NC2=O)cc1 (stereo unspecified)
2.0%	-1%	x	11%	Cc1ccc2c(c1)/C(=C/c1ccccc1C)C(=O)N2
-2.8%	-13%	x	-66%	OCc1cc(Br)ccc1OCc1nc2ccccc2s1
0.4%	4%	13	-7%	COC(=O)c1sc(S(=O)(=O)NCCCN(C)C)c(C(=O)OC)c1C
1.7%	-5%	7	2%	CC(CCn1cccn1)NC(=O)CCc1nnc(CCc2ccccc2)o1 (stereo unspecified)
2.1%	-3%	x	x	COc1ccc(Cl)cc1C(=O)OCC(=O)Nc1cccnc1Cl
-0.2%	5%	-3	-28%	O=C(Nc1ccc2c(c1)OCO2)C1Cc2ccccc2CN1S(=O)(=O)c1cccs1 (stereo unspecified)
-0.7%	6%	x	1%	C[C@@]12C(=O)N(CC3CC3)CC(=O)N1[C@H](C1CC1)[C@@H]1C(=O)N(c3ccccc3)C(=O)[C@@H]12
5.6%	12%	x	-29%	COc1cc(C(=O)Nc2cc(C)ccn2)ccc1OCC(=O)N1CCOCC1

Profiles, looked up by structure. Order of screens: Rango-impB inh, Rango release inh, GLA inh pH 4.5, miR-21 FLuc
Results for `COc1ccc(Cl)cc1C(=O)OCC(=O)Nc1cccnc1Cl` → 2.1%, -3%, x, x
Results for `COC(=O)c1sc(S(=O)(=O)NCCCN(C)C)c(C(=O)OC)c1C` → 0.4%, 4%, 13, -7%
Results for `COc1cc(C(=O)Nc2cc(C)ccn2)ccc1OCC(=O)N1CCOCC1` → 5.6%, 12%, x, -29%
Results for `O=C(Nc1ccc2c(c1)OCO2)C1Cc2ccccc2CN1S(=O)(=O)c1cccs1` (stereo unspecified) → -0.2%, 5%, -3, -28%

Next entries.
Rango-impB inh	Rango release inh	GLA inh pH 4.5	miR-21 FLuc	SMILES
u	u	x	x	COc1cc(-c2cc(O)c(-c3ccc4ccccc4n3)c(=O)[nH]2)cc(OC)c1OC
-0.3%	26%	-10	-2%	O=C(CCCCn1c(=O)c2ccccc2n(CC(=O)Nc2ccc(F)cc2)c1=O)NCc1ccco1
0.1%	-15%	x	-5%	COc1ccc(NC(=O)c2cc(-c3ccc4c(c3)OCO4)on2)cc1OC
-0.9%	-11%	2	-8%	Cc1nn(C)c(C)c1S(=O)(=O)N(CC(=O)NCCN1CCOCC1)c1ccc(C(C)C)cc1
7.9%	-4%	x	x	CN(CC(=O)Nc1ccccc1Br)CC(=O)Nc1ccccc1-c1ccccc1
5.4%	-9%	-3	-12%	O=C(Cc1ccccc1)Nc1ccc(NC(=O)C2CC2)nc1
-5.6%	2%	-4	-5%	Cc1cc(C)c(/C=N/n2c(C)cc(C)c(C#N)c2=O)c(C)c1
-0.8%	-10%	x	16%	COc1ccccc1N1CCN(C(=O)C2CCN(C(=O)c3cccc(Cl)c3)CC2)CC1
-3.6%	-16%	2	1%	O=c1cc(C(F)(F)C(F)F)oc2ccccc12
-3.4%	0%	x	x	O=C(O)c1ccc(CNC(=O)c2ccc(S(=O)(=O)N3CCCCC3)cc2)cc1
-0.1%	1%	x	1%	CN1CCN(C(=O)C2CCCN(S(=O)(=O)c3ccc(Br)cc3)C2)CC1 (stereo unspecified)
0.6%	-3%	x	x	O=C(CN1CCCCC1)Nc1cc(S(=O)(=O)N2CCOCC2)ccc1N1CCCC1

Two entries from above, set out differently:
compound: COc1ccccc1N1CCN(C(=O)C2CCN(C(=O)c3cccc(Cl)c3)CC2)CC1
  Rango-impB inh: -0.8%
  Rango release inh: -10%
  GLA inh pH 4.5: x
  miR-21 FLuc: 16%
compound: O=c1cc(C(F)(F)C(F)F)oc2ccccc12
  Rango-impB inh: -3.6%
  Rango release inh: -16%
  GLA inh pH 4.5: 2
  miR-21 FLuc: 1%

Next section.
Rango-impB inh	Rango release inh	GLA inh pH 4.5	miR-21 FLuc	SMILES
-0.7%	-20%	x	x	O=C(COC(=O)c1cccc(S(=O)(=O)N2CCCC2)c1)Nc1ccccc1C(F)(F)F
-0.7%	3%	2	-11%	Cc1ccc(CSCC(=O)N/N=C/c2cccc(OC3CSC3)c2)cc1
u	8%	-3	-4%	Cc1ccc(C(=O)COC(=O)c2cc(Cl)nc3ccccc23)cc1
-0.8%	3%	x	x	O=C1C=C(/C=C/c2ccccc2)C[C@@H](c2ccc3c(c2)OCO3)C1
-6.7%	-8%	1	1%	CC(=O)C(C(C)=O)C(NC(=O)c1cccnc1)(C(F)(F)F)C(F)(F)F
1.8%	-9%	1	5%	CNC(=O)/C(C#N)=C\c1ccc(CNS(=O)(=O)c2ccc(Cl)cc2)o1
-2.2%	-10%	x	-1%	O=Cc1c(NCCN2CCCC2)c2ccccc2[nH]c1=O
5.6%	12%	-2	5%	O=C1CC(c2ccccc2)CC(=O)C1=CN1CCCC1 (stereo unspecified)
-4.7%	6%	7	1%	Cc1cc(C(F)F)nn1CC(=O)NCc1ccccc1F
3.6%	-9%	-7	-7%	O=C(Cn1cnc2ccccc21)Nc1cc(C(F)(F)F)ccc1N1CCOCC1
0.1%	-14%	-5	-6%	COc1cccc(N2CC(C(=O)Nc3nnc(SCC(=O)c4ccccc4)s3)CC2=O)c1 (stereo unspecified)
4.9%	4%	6	-5%	CC(c1nnc(SCC(=O)N2CC(=O)Nc3ccccc32)n1Cc1ccccc1)N(C)C (stereo unspecified)
2.2%	-23%	-11	-4%	CSCCC1C(C#N)=C(N)Oc2n[nH]c(-c3cccs3)c21 (stereo unspecified)
u	9%	x	x	CCN(CC(=O)Nc1ccc(NC(C)=O)cc1)C(=O)/C=C/c1cn(-c2ccccc2)nc1-c1ccc(F)cc1
6.4%	-4%	x	-2%	COCCN(C(=O)CCC(=O)Nc1cc(C)on1)C(C(=O)NC1CCCC1)c1ccc(C)cc1 (stereo unspecified)
-2.5%	-12%	x	-15%	Cc1cccc(NC(=O)CN(C)S(=O)(=O)c2ccc(-c3ccc(=O)[nH]n3)s2)c1C
0.0%	0%	1	-1%	S=C1NC(C23CC4CC(CC(C4)C2)C3)=CC(c2ccc3c(c2)OCO3)N1 (stereo unspecified)
-0.5%	0%	-7	-48%	c1ccc2c(c1)Cc1cc(CN3CCOCC3)ccc1-2
1.6%	-1%	x	-5%	COC(c1ccccc1)c1nnc(CCC(=O)N2CCN(C3CCCC3)CC2)o1 (stereo unspecified)
5.4%	15%	x	x	Cc1cccc(NC(=O)CN2CCN(C(=O)CN3C(=O)NC4(CCCCC4C)C3=O)CC2)c1C (stereo unspecified)
3.1%	25%	2	-6%	Cc1ccccc1OCCCc1c(C)n[nH]c1C
0.1%	15%	x	-4%	CCn1nc(C)c(CN2CCC(n3nccc3NC(=O)c3ccccc3OC)CC2)c1C
-1.8%	-1%	x	x	O=C(N[C@H]1C/C=C\C(c2cccc(F)c2)N(Cc2ccccc2)C(=O)C1)OCC1c2ccccc2-c2ccccc21 (stereo partly specified)
-7.0%	-11%	2	-3%	CC(C(=O)c1c[nH]c(C(N)=O)c1)c1ncc(C(F)(F)F)cc1Cl (stereo unspecified)
0.5%	-8%	x	x	CC(=O)Nc1ccc(NC(=O)C(C)OC(=O)/C=C/c2ccc3c(c2)OCO3)cc1 (stereo unspecified)
u	-33%	x	-5%	CCc1cc(=O)oc2c(CN3CCN(C)CC3)c(O)ccc12
3.1%	-17%	2	-14%	CNC(=O)CN(C1CCCCC1)S(=O)(=O)c1ccc(OC)c(Cl)c1
2.0%	5%	x	0%	Cc1ccc(C)c(N(C)C(=O)CCS(=O)(=O)c2cccc3nonc23)c1
2.5%	4%	-3	3%	C=CCn1c(=O)c2ccccc2n2c(SCc3nc(N)nc(Nc4ccccc4C)n3)nnc12
2.1%	-13%	1	1%	Cc1cccc(C(=O)Nc2ccccc2-c2nnn(CC(=O)Nc3ccc4c(c3)OCCO4)n2)c1
0.0%	-4%	6	0%	Cc1cc(C)c2c3c(sc2n1)C(=O)N(Cc1ccccc1)CC(=O)N3
2.9%	16%	0	-45%	C=C1CC(C(=O)N/N=C/c2ccccc2)C1
0.2%	15%	-9	0%	COc1cc(/C=N/NC(=O)C(=O)NCc2ccco2)ccc1O
9.4%	-4%	x	x	O=[N+]([O-])c1ccc(CSc2ncnc3c2ncn3[C@@H]2O[C@H](CO)[C@@H](O)[C@H]2O)cc1
1.7%	-12%	x	-69%	Cc1cccc(C(=O)OCC(=O)c2ccc3c(c2)OCO3)c1O
3.0%	5%	-18	-26%	CCn1c(NC(=O)c2ccccc2)nc2ccccc21
-1.0%	0%	10	-8%	CCOC(=O)C1=C(C)NC(SC(C)=O)=NC1c1ccc(OC(C)=O)c(OC)c1 (stereo unspecified)
0.6%	0%	4	-7%	O=C(NN1C(=O)c2ccccc2NC1c1cccnc1)c1ccccc1 (stereo unspecified)
0.0%	1%	x	-7%	N#Cc1ccccc1NC(=S)NC(=O)c1cccnc1
-2.7%	6%	x	x	Cc1ccc(S(=O)(=O)Nc2ccc3c(c2)CC(=O)N([C@H](C)CO)C[C@@H](C)[C@H](CN(C)Cc2ccc(-c4ccccc4)cc2)O3)cc1
1.9%	11%	3	-11%	CN(C)C(=O)Cn1c(SCC(=O)NC2CCCCC2)nc2ccccc21
u	u	x	1%	CCN1C(=O)/C(=C2/Sc3ccccc3N2CC)SC1=S
1.0%	-11%	-3	-45%	COc1cccc(NC(=O)CSc2ccccn2)c1
-3.7%	-8%	x	5%	COc1ccc(C(=O)Nc2ccnn2C2CCN(CC3CC=CCC3)CC2)cc1 (stereo unspecified)
u	-13%	-8	-1%	COc1ccc(C(=O)n2c(-c3ccco3)nc3ccccc32)cc1
-0.4%	1%	-5	-3%	O=C(O)CC(SCc1ccc(C(=O)O)o1)C(=O)O (stereo unspecified)
1.1%	8%	x	3%	CCOc1cc(CN2CCN(c3ncccn3)CC2)ccc1OC
-1.2%	11%	6	-2%	CCc1nnc(NC(=O)CCC(=O)NCC2CCCO2)s1 (stereo unspecified)
4.6%	8%	11	-5%	O=C(NCc1ccccc1F)c1cccs1
-1.6%	8%	x	-4%	O=C(Cc1ccccc1F)Nc1cc(Cl)ccc1N1CCCC1
1.5%	2%	-6	4%	O=C1c2[nH]nc(-c3ccccc3O)c2C(c2cccc(Cl)c2)N1CC1CCCO1 (stereo unspecified)
0.3%	-12%	-8	u	COc1ccccc1N1CCN(Cc2cc(Br)c(O)c3ncccc23)CC1
0.4%	-11%	3	-19%	O=C(O)c1cn(Cc2ccccc2)c2ccccc2c1=O
1.4%	2%	-5	-28%	CNS(=O)(=O)c1ccc(NCC2COc3ccccc3O2)c([N+](=O)[O-])c1 (stereo unspecified)
u	-20%	x	2%	Cc1ccc(S(=O)(=O)N[C@@H](Cc2ccccc2)C(=O)N2CCC(C(=O)N[C@H](C(=O)O)C(C)O)CC2)cc1 (stereo partly specified)
0.3%	3%	-3	-3%	COc1ccc(OC)c(S(=O)(=O)n2nc(C)cc2C)c1
-1.9%	-23%	-1	-37%	C/C(=N\Nc1nc2ccccc2[nH]1)c1ccc(C)o1
5.2%	0%	-9&-6	x	CC1CCN(CC[C@H]2CCCN2S(=O)(=O)c2cccc(O)c2)CC1
8.4%	26%	x	5%	COc1cccc(CN(C)C(=O)[C@@H](NC(=O)c2ccc(C)cc2)C(C)C)c1

The list is partial; the hit share may differ from the screen's.
